Screening data deposited in PubChem by National Center for Advancing Translational Sciences (NCATS).
MARV entry inh – blocks Marburg virus binding to or entry into cells; Marburg virus pseudotyped entry inhibition, cell reporter; control for the full effect not named in the record; about a third of the inactives were read at about 46 µM; Potency, µM (series often up to 37.8 µM), for the others: top-dose activity change, negative = inhibition, hits mostly inhibitors; 300,000 compounds, 1.8% hits; AID 540276; active = well fitted inhibition curve with a large enough effect; inconclusive = small, poorly fitted or top-dose-only effect, or effect the other way; inactive = flat fitted curve, though single readings scatter; tested in HEK293 cells; about a fifth of its hits are not listed in these tables; also: % is scaled to controls: 0 for no effect and ±100 for the full control effect; luciferase read-out
StopGo reporter – FMDV 2A StopGo reporter, luciferase signal; human cells with a luciferase reporter of 2A StopGo recoding; control for the full effect not named in the record; Potency, µM (series often up to 57.9 µM), for inactives: at the highest dose signal change, negative = less light; 410,000 compounds, 1.2% hits; AID 1159524; active = well fitted falling curve with a large enough effect; inconclusive = small, poorly fitted or top-dose-only effect; inactive = no such curve, though single readings can be large or run the other way; tested in HEK293T cells; also: % is scaled to controls: 0 for no effect and ±100 for the full control effect; nearly all actives have a fitted effect of over 45% in size; luciferase light after 4 h
RE007 growth inh – less growth of the S. pombe RE007 Vpr strain; 360,000 compounds, 0.21% hits; S. pombe RE007 Vpr strain, BacTiter-Glo ATP luminescence, 24 h; control for the full effect not named in the record; Potency, µM (titrated, usually from 92.2 µM), for the others: at the top dose activity change, negative = less growth; active = well fitted falling curve with a large enough effect; inconclusive = small, poorly fitted or top-dose-only effect; inactive = no such curve, though single readings can be large or run the other way;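 also: % is scaled to controls: 0 for no effect and ±100 for the full control effect; nearly all actives have a fitted effect of over 50% in size; the assay follows cell death caused by Vpr and the record does not say whether a fall means rescue or toxicity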
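Fission yeast RE007 carrying one integrated HIV-1 vpr copy, seeded at OD 0.01 in PMG+AL medium with 23 nL pinned compound. Grown 24 h at 30 degrees; viability read by BacTiter-Glo luminescence after 5 min.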
Cruzain inh Det – cruzain (T. cruzi) inhibition with detergent. AID 1478. Potency, µM, without a hit: max response, negative = inhibition, most hits filed as inhibitors. P25779. purified cruzain, Z-FR-AMC fluorescence, 0.01% Triton. 200,000 compounds, 0.43% hits;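 also: plate controls were neutral wells for no effect and buffer without enzyme for full effect; nearly all actives have a fitted effect of over 40% in size; top concentration of the series not given in the record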
Target sequence (P25779 123-467 limits assumed): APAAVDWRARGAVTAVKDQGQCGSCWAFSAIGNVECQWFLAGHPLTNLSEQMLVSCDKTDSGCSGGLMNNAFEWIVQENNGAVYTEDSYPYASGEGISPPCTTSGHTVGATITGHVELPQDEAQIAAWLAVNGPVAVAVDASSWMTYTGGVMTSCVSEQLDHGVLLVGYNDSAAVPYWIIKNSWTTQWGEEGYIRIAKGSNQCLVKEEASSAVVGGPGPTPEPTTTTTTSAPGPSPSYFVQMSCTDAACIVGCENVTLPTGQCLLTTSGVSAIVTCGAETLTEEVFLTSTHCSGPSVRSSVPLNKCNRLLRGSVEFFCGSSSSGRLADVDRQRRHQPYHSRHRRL
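Cysteine protease activity tested under reducing, mildly acidic conditions (100 mM sodium acetate pH 5.5, 5 mM DTT) plus 0.01% Triton X-100. Cruzain 1.5 nM; substrate Z-FR-AMC 2 uM; 15 min compound preincubation at room temperature.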
SARS PLP yeast – SARS-CoV PLP inhibition in yeast. S. cerevisiae expressing SARS-CoV PLpro, growth rescue; control for the full effect not named in the record. Potency, µM (doses to about 32.9 µM), inactives show top-dose activity, positive = growth rescue. 330,000 compounds, 0.19% hits. AID 485353; active means well fitted rising curve with a large enough effect; inconclusive means small, poorly fitted or top-dose-only effect; inactive means no such curve, though single readings can be large or run the other way; also: 0% is about no effect; nearly all actives have a fitted effect of over 55% in size; growth read by luminescence after 48 h
NS1 inh – influenza NS1 inhibition; S. cerevisiae slowed by influenza A NS1, growth recovery by OD600; Potency, µM (series often up to 46.1 µM), inactives show top-dose activity, positive = more growth; 270,000 compounds, 0.4% hits; AID 2326; active means well fitted rising curve with a large enough effect; inconclusive means small, poorly fitted or top-dose-only effect; inactive means no such curve, though single readings can be large or run the other way; also: nearly all actives have a fitted effect of over 50% in size
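Recovery from NS1-induced slow growth read by OD600 in budding yeast switched to galactose assay medium (pH 6.0, -URA) at 1:100 dilution. Compound 23 nl per well; the matching strain lacking NS1 serves as control.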
LASV entry inh – inhibitors of Lassa virus binding or cell entry | 300,000 compounds, 1.2% hits | Lassa virus pseudotype entry inhibition, cell reporter; control for the full effect not named in the record | AID 540256 | Potency, µM (series often up to 37.9 µM), inactives show at the highest dose activity change, negative = inhibition, hits mostly inhibitors; active means well fitted inhibition curve with a large enough effect; inconclusive means small, poorly fitted or top-dose-only effect, or effect the other way; inactive means flat fitted curve, though single readings scatter; tested in HEK293 cells; also: % is scaled to controls: 0 for no effect and ±100 for the full control effect; nearly all actives have a fitted effect of over 50% in size; luciferase read-out
Cruzain inh noDet – inhibitors of Trypanosoma cruzi cruzain without detergent | purified cruzain, Z-FR-AMC fluorescence, no detergent | Potency, µM, inactives show max response, negative = inhibition, most hits filed as inhibitors | 200,000 compounds, 2.3% hits | AID 1476;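 also: plate controls were enzyme without inhibitor for no effect and buffer without enzyme for full effect; nearly all actives have a fitted effect of over 40% in size; top concentration of the series not given in the record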
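Purified cruzain at 1.5 nM, pre-incubated 15 min with compound at room temperature in 100 mM sodium acetate pH 5.5, 5 mM DTT, 0.00005% Triton X-100. Reaction started with 2 uM Z-FR-AMC; AMC fluorescence increase over 60 s gives rate.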
An asterisk follows results filed as active; ? = inconclusive; . = no result given; & = joins results of further samples; [ ] = dose if it differs, or a comment. Unless noted, calls follow the shape of the dose curve; as a rule, active = well fitted curve in the direction sought with a large enough effect; inconclusive = small, poorly fitted or top-dose-only effect, or another doubt; inactive = no such curve, though single readings can be large; an effect the other way counts as inactive or inconclusive. Potency is read from the fitted curve at half-maximal effect.

item	Compound	LASV entry inh	Cruzain inh Det	StopGo reporter	NS1 inh	SARS PLP yeast	Cruzain inh noDet	RE007 growth inh	MARV entry inh
1	Nc1[nH]c(=S)[nH]c(=O)c1-c1ccccc1	-23%	-1.6%	-24%	4%	2%	-14%	9%	10%[46.1 µM]
2	O=C(N/N=C\c1ccc(F)cc1)c1cc(OCC(F)(F)F)ccc1OCC(F)(F)F	0%	-2.8%	-13%	-14%	1%	12%	13%	-15%
3	Cc1ccc(NC(=O)c2cc(N3C(=O)C=CC3=O)ccc2N2CCOCC2)cc1Cl	-8%	-1.7%	?	-48%	-87%	?	7.9µM*	-10%
4	COC(=O)c1cc2sccc2n1Cc1ccc(F)cc1	-4%[46.1 µM]	0.0%	-20%	.	.	-10%	.	.
5	Cn1c(=O)cc(Nc2ccccc2)[nH]c1=O	3%	.	-15%	14%	6%	.	0%	-29%
6	CCC(NC(=O)c1ccccc1Br)c1ccccc1 (stereo not given)	.	.	-12%	-2%	0%	.	5%	5%[46.1 µM]
7	CCOc1ccc(N(CC(=O)NC(C)(C)C)S(=O)(=O)c2c(C)noc2C)cc1	.	-2.2%	-20%	-6%	18%	-1%	0%	.
8	O=C(CCSc1ccccc1)NCCN1CCOCC1	-2%	-2.0%	26%	-2%	-2%	-1%	-11%	11%
9	CCN(C(=O)COC(=O)CSc1cc(C)c2ccccc2n1)c1ccccc1	-8%	.	8%	.	-7%	.	-2%	16%
10	COc1ccc(C(=O)C(OC(=O)CNC(=O)c2ccco2)c2ccccc2)cc1 (stereo not given)	-3%	4µM*	16%	-41%	6%	3.2µM*	20%	5%
11	Clc1ccccc1-c1nc2ccccc2c2nncn12	-5%	-4.7%	-14%	-6%	-10%	-5%	32%	?
12	COc1cccc(NC(=O)c2cc(CN3C(=O)c4ccccc4C3=O)ccc2OC)c1	9%	-0.9%	-23%	0%	6%	13%	3%	?
13	C/C(=N\NC(=S)NCc1ccccc1)c1ccc(Cl)s1	-29%	.	50%[activator]	.	-4%	.	-5%	?
14	O=C(CCn1c(=O)c2ccccc2n(CC(=O)NC2CCCC2)c1=O)NCc1ccco1	10%	0.8%	0%	-4%	-5%	2%	10%	18%
15	Cc1nc2ccccc2c(=O)[nH]1	-23%	1.4%	-16%	4%	-3%	0%	-7%	2%
16	O=C(N/N=C/c1ccc[nH]1)c1ccc(COc2cccc3cccnc23)cc1	?	.	8.9µM*	4%	0%	.	-2%	?
17	Cc1nnc2c(Oc3ccccc3)nc3ccccc3n12	3%	5.9%	0%	-9%	1%	-1%	5%	?
18	Cc1ccccc1-n1c(/C=C/c2ccc(O)cc2)nc2ccccc2c1=O	?	-12%	-11%	.	.	10%	.	.
19	N#Cc1c(NC(=O)CSc2nnc(-c3ccco3)n2-c2ccccc2)sc2c1CCC2	1%	-4.7%	?	5%	-7%	?	10%	5%
20	COC(=O)CSc1nnc(-c2ccco2)n1-c1ccc(C)cc1	2%	0.3%	9%	-3%	1%	-5%	7%	-4%
21	COC(=O)c1ccccc1C(=O)N(c1ccccc1)c1ccccc1	2%	.	-18%	.	.	.	-4%	-19%
22	Cc1cc(C)n2c3c(c(C#N)c2n1)CC(C)(C)OC3	13%	7.4%	10%	-2%	3%	1%	-1%	21%&21%
23	COc1ccc(NC(=O)C2OC3OC(C)(C)OC3C3OC(C)(C)OC23)cc1 (stereo not given)	5%	4.2%	16%	-1%	3%	-2%	8%	-1%
24	CCOC(=O)C(NC(C)=O)(Nc1ccc(S(=O)(=O)Nc2cc(C)nc(C)n2)cc1)C(F)(F)F (stereo not given)	-2%	0.1%	0%	-8%	1%	-6%	6%	-6%&-6%
25	CCOC(=O)Cc1csc(NC(=O)CCCc2ccccc2)n1	.	.	-7%	-1%	0%	.	-4%	.
26	NC(=O)c1nsc(C(=O)N(CC(=O)NCc2ccc3c(c2)OCO3)C2CCCCC2)c1N	-29%	-3.6%	-9%	-4%	1%	-3%	5%	-1%&-1%&-1%[46.1 µM]
27	COc1ccc(C2CC(=O)c3c(O)cc(O)cc3O2)cc1O (stereo not given)	.	-4.2%	54%&40%[activator]	.	.	-14%	-7%	.
28	O=C1CCCc2cc(S(=O)(=O)NCC3CCC(C(=O)Nc4ccc(Cl)cc4)CC3)ccc2N1 (stereo not given)	?	-5.3%	-17%	.	.	-12%	.	.
29	COc1ccccc1C1OCC(C)([N+](=O)[O-])CO1 (stereo not given)	-3%[46.1 µM]	.	-3%	.	.	.	12%	0%[46.1 µM]
30	NC(=O)CC(NC(=O)Cc1cccc2ccccc12)c1ccc(NC2CCC2)c([N+](=O)[O-])c1 (stereo not given)	.	.	-18%	-7%	2%	.	23%	.
31	COc1cc(OC)cc(C(=O)NNC(=O)c2cc(=O)[nH]c3ccccc23)c1	9%	.	1%	.	-6%	.	13%	1%
32	Cc1c(NC(=O)/C(C#N)=C/c2ccc(-c3ccc(Cl)cc3)o2)c(=O)n(-c2ccccc2)n1C	?	-8.0%	25µM*	18%	-4%	?	15%	?
33	COc1cccc(C2C(C(=O)/C=C/c3ccco3)=C(O)C(=O)N2CCN2CCOCC2)c1 (stereo not given)	19%[46.1 µM]	.	-4%	.	0%	.	5%	11%[46.1 µM]
34	Cc1ccc(OCc2nnc(SCC(=O)N3c4ccccc4Sc4ccc(Cl)cc43)o2)cc1	-12%	-2.4%	-25%	8%	8%	?	.	?
35	COc1ccc(NS(=O)(=O)c2ccc(OC)c(OC)c2)cc1OC	16%	-0.4%	41%[activator]	1%	28%	8%	3%	3%
36	Cc1sc2nc3c(SC(C)C(=O)O)cc(C(=O)c4ccccc4O)cn3c(=O)c2c1C (stereo not given)	4%	-14%	5%	20%	-5%	21%	1%	15%
37	O=C(CSc1nc(-c2ccco2)cc(C(F)(F)F)n1)Nc1ccc2c(c1)OCO2	-9%	-9.4%	?	1%	?	5%	10%	-11%
38	COc1cccc(-c2nnc(NC(=O)C3CCCCC3)o2)c1	.	-3.8%	48%[activator]	-5%	0%	-20%	1%	.
39	COCCNC(=O)CSc1nnc(-c2ccccc2F)n1Cc1ccccc1	-24%	.	-2%	-1%	1%	.	3%	13%[46.1 µM]
40	Nc1ncnc2c1ncn2C1CCC(CO)C(O)C1 (stereo not given)	-1%	5.1%	24%	0%	-6%	-3%	3%	25%
41	O=C(CN1CCN(c2ccccc2)CC1)Nc1nccs1	2%	0.0%	-10%	14%	2%	-2%	0%	12%[46.1 µM]
42	O=C(NCc1ccc(Cl)cc1)c1cc2c(nc3sccn32)s1	10%	-3.0%	-2%	-8%	-4%	-9%	-4%	1%
43	Oc1ccc(CNc2ccc(F)cc2)c2cccnc12	?	0.3%	-28%	-46%	12%	?	?	?
44	C=CCc1ccccc1OCC(O)CN1C(=O)c2ccccc2C1=O (stereo not given)	6%	.	3%	-37%	-6%	.	7%	0%
45	Clc1ccccc1Nc1ncnc2c1nnn2Cc1ccccc1	-20%	-4.2%	15%	-12%	2%	0%	22%	-10%
46	CCOc1ccc(C(C)=O)cc1CSc1nnc(N)s1	-12%	.	-9%	5%	-2%	.	-9%	?
47	CC(CN1CCC(n2nccc2NC(=O)C2CCCC2)CC1)c1ccccc1 (stereo not given)	2%	.	-21%	0%	-2%	.	-13%	0%
48	Cc1ccc(SCC(=O)NNC(=O)c2ccc(S(C)(=O)=O)cc2)cc1	1%[46.1 µM]	.	5%	0%	0%	.	-16%	?
49	Clc1ccc(-c2nc3ncccn3c2Nc2ccc3c(c2)OCO3)cc1	-16%	13%	-2%	?	8%	-5%	12%	?
50	Cc1ccc(CNC(=O)c2ccc(CSCc3ccccc3C)o2)cc1	?	0.5%	-5%	.	.	2%	.	.
51	O=C1CN(S(=O)(=O)c2ccc([N+](=O)[O-])cc2)CC(=O)N1	2%[46.1 µM]	.	4%	5%	2%	.	-5%	-2%[46.1 µM]
52	COc1ccc(Cl)cc1NC(=O)C1CC(=O)N(c2ccc(F)cc2)C1 (stereo not given)	-10%	-1.5%	-17%	-54%	-2%	-14%	-10%	-15%
53	Cc1ccc2c(C)c(C(=O)Nc3ccc(S(N)(=O)=O)cc3)oc2c1C	-4%[46.1 µM]	.	-3%	1%	0%	.	19%	?
54	C#CCOCCOCCOCCNc1nc(N2CCN(C(=O)C(Cc3ccc(O)cc3)n3cc(C(N)CC(C)C)nn3)CC2)nc(N2CCN(C(=O)C(Cc3ccc(O)cc3)n3cc(C(N)C(C)CC)nn3)CC2)n1 (stereo not given)	.	.	6%	-2%	0%	.	1%	.
55	O=C(Nc1ccon1)C(Sc1ccccc1)c1ccccc1 (stereo not given)	12%	-2.8%	-22%	-2%	1%	16%	14%	-9%
56	CCN(C(=O)COC(=O)c1ccc2[nH]c3c(c2c1)CCCC3)C1CCS(=O)(=O)C1 (stereo not given)	-3%	.	-11%	1%	3%	.	7%	-4%[46.1 µM]
57	COCCCNC(=S)NNC(=O)Cn1nc(C)c(Br)c1C	12%	2.4%	-21%	-4%	21%	9%	13%	37%
58	O=S(=O)([N-]c1nc2ccccc2nc1-n1cc[n+](Cc2ccccc2)c1)c1ccccc1	?	.	43%[activator]	-1%	-1%	.	-11%	-4%[14.2 µM]
59	CCn1c(CNC(=O)c2ccc(OC)cc2)nnc1SC	.	2.7%	-10%	8%	0%	-7%	0%	.
60	CSc1cccc(NC(=O)CCC(=O)O)c1	?	1.1%	3%	-3%	1%	10%	9%	2%
